Ecoli rRNA inh: selective bacterial rRNA inhibition in E. coli; E. coli WT GFP vs humanized-ribosome RFP mutants, fluorescence, 24 h; active compounds read low; DMSO median 0, no signal -100; AID 720706; 350,000 compounds, 1.6% hits; GFP signal change (wild-type ribosome), % (concentration not given with the values);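 active = significant combined selectivity score with lowered wild-type GFP, culture density cut under 30%, mutant RFP and density less affected; inactive = any of these conditions unmet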; note: one replicate is shown; some compounds called inactive have numbers as strong as hits
Vif TR-FRET: inhibitors of Vif binding to APOBEC3G peptide, primary screen, biochemical, TR-FRET, GST-Vif 1-94, biotin-A3G peptide, dose response retest (AID 1117319). one-dose inhibition, %; IC50 in µM for titrated hits. 260,000 compounds, 0.57% hits. TR-FRET GST-Vif / biotin-A3G peptide binding; higher % means a stronger effect; test concentration not given here; strong numbers were not always called active;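 active = above the screen mean plus three standard deviations and confirmed in dose response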;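 note: Vif residues 1-94 fused to GST binding biotinylated APOBEC3G peptide 110-148; 0% = full assay without inhibitor and 100% = GST in place of GST-Vif; retest series ran down from 100 µM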
AF4-AF9 inh: blocks AF4 peptide binding to human AF9 | P42568 | inhibition, % at 10 µM | 350,000 compounds, 0.47% hits | AlphaScreen, biotin-AF4 peptide binding to FLAG-AF9;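 active = every replicate reaching a set inhibition limit, whatever the replicate mean, cut at about 25% in these data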;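 note: 0% = plate neutral control median and 100% = total signal loss; the record names both 10 and 1 µM as test concentration; the first replicate is given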
Target sequence (P42568 whole entry, looked up): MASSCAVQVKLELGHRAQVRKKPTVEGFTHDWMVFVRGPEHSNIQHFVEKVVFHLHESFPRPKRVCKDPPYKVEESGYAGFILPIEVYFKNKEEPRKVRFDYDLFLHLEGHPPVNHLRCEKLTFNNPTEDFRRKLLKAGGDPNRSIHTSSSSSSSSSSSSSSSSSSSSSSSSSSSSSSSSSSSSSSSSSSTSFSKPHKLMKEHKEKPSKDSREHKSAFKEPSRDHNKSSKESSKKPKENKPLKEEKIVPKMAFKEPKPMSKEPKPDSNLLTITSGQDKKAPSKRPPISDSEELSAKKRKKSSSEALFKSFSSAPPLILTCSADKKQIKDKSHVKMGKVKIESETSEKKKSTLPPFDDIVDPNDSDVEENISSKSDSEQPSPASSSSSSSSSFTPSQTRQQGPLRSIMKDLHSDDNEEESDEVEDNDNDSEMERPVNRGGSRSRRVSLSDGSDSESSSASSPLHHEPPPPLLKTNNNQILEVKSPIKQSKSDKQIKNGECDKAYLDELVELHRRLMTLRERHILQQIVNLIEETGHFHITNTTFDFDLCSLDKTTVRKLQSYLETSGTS
FGF22 binding: FGF22 (human) thermal shift binding; 340,000 compounds, 1.5% hits; AID 651658; recombinant FGF22 thermal shift, SYPRO orange fluorescence; percent of sucrose octasulfate shift, DMSO zero; calls only at 9.99 µM;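 active = melting point raised past a set limit in the mean and every replicate; three in four hits are not shown here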
ALR H2O2 inh: human ALR oxidase inhibition via reduced H2O2; P55789; purified ALR, DTT oxidation, H2O2 HRP-luminol luminescence; inhibition, % (no concentration beside the values); 290,000 compounds, 3.8% hits; AID 485317;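 active = mean and each replicate at 75% or more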;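 note: stock transfer was 7.5 nL into about 7.5 µL; 0% = neutral wells and 100% = wells with inactivated enzyme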
Ecoli growth: inhibitors of Escherichia coli growth | OD600, 23 h; active compounds read low | 330,000 compounds, 0.21% hits | OD600 absorbance (no concentration beside the values);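 active = OD600 absorbance below the run mean of sample wells minus 3.6 SD, in any replicate, cut at about 0.56 in these data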;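 note: stock transfer was 300 nL into about 60 µL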
HNF4A DNA FP: change in binding of human HNF4 alpha to DNA; P41235; HNF4a-FITC DNA binding, fluorescence polarization, 1 h; activity change, % at 10 µM; 360,000 compounds, 0.3% hits; AID 1224865; in the data active = activity change above about 30%, passing the limit was not always enough;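 note: controls were the assay level and a saturating level of protein; the project sought stronger binding though the title names inhibitors; some compounds called inactive have numbers as strong as hits; positive values seem to mean higher polarization but the record does not say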
Target sequence (P41235 whole entry, looked up): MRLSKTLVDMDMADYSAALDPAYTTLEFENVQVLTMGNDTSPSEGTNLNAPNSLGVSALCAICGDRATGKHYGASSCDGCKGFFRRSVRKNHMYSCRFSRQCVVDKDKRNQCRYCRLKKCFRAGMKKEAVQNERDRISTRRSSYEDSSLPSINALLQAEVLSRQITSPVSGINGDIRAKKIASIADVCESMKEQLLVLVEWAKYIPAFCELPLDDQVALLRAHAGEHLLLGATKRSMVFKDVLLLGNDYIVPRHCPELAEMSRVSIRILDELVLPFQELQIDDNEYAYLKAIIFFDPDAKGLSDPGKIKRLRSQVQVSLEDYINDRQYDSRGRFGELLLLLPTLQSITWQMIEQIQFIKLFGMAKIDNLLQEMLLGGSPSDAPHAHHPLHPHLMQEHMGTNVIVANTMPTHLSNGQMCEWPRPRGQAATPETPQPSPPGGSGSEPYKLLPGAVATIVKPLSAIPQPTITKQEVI
Ecoli rRNA inh OD600: recorded beside Ecoli rRNA inh, whose call it bears; OD600 change, %; measured here: OD600 growth;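 optical density of the mix in the first replicate; 0 = DMSO median and -100 = no signal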
Ecoli rRNA inh RFP: also measured in Ecoli rRNA inh; calls as there; RFP signal change, %; measured here: RFP humanized mutant strains;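 first replicate; 0 = DMSO median and -100 = no signal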
Active calls of the source: *; i = inactive; nt = no result given.

Each structure is followed by: Ecoli growth, AF4-AF9 inh, Ecoli rRNA inh, Ecoli rRNA inh OD600, ALR H2O2 inh, HNF4A DNA FP, FGF22 binding, Ecoli rRNA inh RFP, Vif TR-FRET
Cc1ccc(NC(=O)CN(CCc2ccccc2)S(C)(=O)=O)cc1
  0.634, 1.8, -4.4, 3.7, 2.2, -3.7, i, -3.0, nt
CC(=O)Nc1ccc(C)cc1NC(C)=O
  0.692, nt, nt, nt, 6.0, -0.2, nt, nt, -4.8%
CO[C@@H]1CN(C)C(=O)c2ccc(NC(=O)Nc3ccccc3)cc2OC[C@@H](C)N(C(=O)CN(C)C)C[C@H]1C
  nt, 7.5, -1.1, 4.5, nt, nt, i, -1.9, nt
COc1ccc(NC(=O)c2cc(C)no2)cc1OC
  0.659, 0.6, 8.8, 8.8, -17.1, -0.4, i, 0.4, nt
O=C(CSc1nc(=O)n2ccccc2n1)Nc1ccc2c(c1)OCCO2
  0.687, -0.5, 0.2, -1.4, nt, -2.3, i, -2.1, 1.0%
CCC(=O)Nc1ccc(C(=O)NCc2ccccn2)cc1
  0.642, nt, nt, nt, -8.5, 0.8, nt, nt, -3.4%
O=C(Cc1ccsc1)N1CCN(S(=O)(=O)c2ccccc2F)CC1
  0.641, 0.4, 3.2, 8.4, -42.7, -2.0, i, 0.9, nt
CN1C(=O)c2cc(NC(=O)C3CC3)ccc2OC[C@H]2O[C@H](CC(=O)NCCc3ccncc3)CC[C@@H]21
  nt, -10.5, 1.8, 4.1, nt, nt, i, -4.3, nt
OC1c2cc(Br)ccc2N=C2CCCN21 (stereo not drawn)
  0.679, -0.8, -1.5, 10.8, 3.9, -1.0, i, -0.6, -8.5%
O=C(CN1C(=O)NC2(CCCCC2)C1=O)NCCc1ccc(Cl)cc1Cl
  0.68, -17.5, -2.9, -21.4, -6.4, -1.8, i, -4.0, -6.5%
O=C(Nc1ccc(C(=O)N2CCCCC2)cc1)C1CCCC1
  nt, -4.8, 16.1, 3.8, nt, -1.4, i, -2.4, 0.2%
C[C@H](CO)N1C[C@H](C)[C@H](CN(C)C(=O)c2ccncc2)Oc2cc(C#CC3CC3)ccc2S1(=O)=O
  nt, 0.6, -0.6, -1.1, nt, nt, i, -0.9, nt
CC(C)c1ccc(N2C(=O)CC(Sc3ncn[nH]3)C2=O)cc1 (stereo not drawn)
  0.709, nt, nt, nt, 5.9, 2.9, nt, nt, 4.3%
O=C1CCC(=O)N1c1ccccc1OS(=O)(=O)c1ccccc1
  0.663, -0.7, 11.3, 10.4, -2.6, 2.6, i, 1.8, nt
CC(C)C[C@@H](COc1ccccc1)N1CCN(CCc2ccccc2)CCC1=O
  nt, 0.8, -52.1, -76.1, 4.7, 1.0, i, -28.6, nt
CCC(=O)N1CCc2cc(S(=O)(=O)N3CCCCC3CC)ccc21 (stereo not drawn)
  0.649, 2.5, 5.2, 7.3, -1.2, 5.5, i, 0.8, nt
O=C1CCCC(O)=C1N=Nc1ccc(Cl)c(Cl)c1
  0.699, -5.1, nt, nt, -11.1, 0.5, i, nt, -7.9%
CN1CCC(N(C)S(=O)(=O)c2ccc(NC(=O)COc3ccc(Br)cc3Cl)cc2)CC1
  0.562, 7.8, -16.9, -24.4, -16.1, 3.8, nt, 4.1, 4.9%
O=C(CN1CCCCCC1=O)OCc1ncc(-c2ccccc2)o1
  0.694, nt, nt, nt, 1.0, 1.6, nt, nt, -4.8%
CC(OC(=O)c1cc(=O)[nH]c2ccccc12)C(=O)NC1CCCC1 (stereo not drawn)
  0.687, -4.8, 6.8, 16.6, 2.1, 0.8, i, -1.0, -9.5%
CCc1ccc(C(C)NC(=S)NC2CCCCC2)cc1 (stereo not drawn)
  0.698, nt, nt, nt, -3.4, 1.4, nt, nt, 0.2%
CCOc1ccc(NC(=O)CN(C)C(=O)Cc2ccsc2)cc1OCC
  nt, 0.5, 2.3, 6.5, nt, -3.3, i, 0.4, nt
COc1cc(/C=C/C(=O)OCC(=O)Nc2ccc(S(=O)(=O)N3CCCC3)cc2)ccc1O
  0.712, nt, nt, nt, nt, 2.2, nt, nt, 0.3%
CC1CSC(N(C(=O)c2ccc(S(C)(=O)=O)cc2)c2ccc(Cl)cc2)=N1 (stereo not drawn)
  0.709, 0.6, 1.8, 7.2, 0.1, -2.9, i, -3.2, nt
C[C@@H]1CCCCO[C@@H](CN(C)C(=O)CCCN(C)C)[C@@H](C)CN([C@H](C)CO)C(=O)c2cc(NC(=O)c3ccccc3)ccc2O1
  nt, -0.7, 0.9, 3.3, nt, nt, i, -2.3, nt
Cc1ccc(-n2nnnc2CCl)cc1
  0.64, 0.9, 10.6, 6.2, nt, 0.4, i, -0.1, 3.6%
CCn1c(C)c(C(C)=O)c(N2CCN(c3ccc(F)cc3)CC2)nc1=S
  0.667, nt, nt, nt, 56.5, 4.7, nt, nt, 10.3%
CNC(=O)Nc1cc(C(C)(C)C)no1
  0.713, nt, nt, nt, -3.8, -5.5, nt, nt, 0.8%
O=C(C[C@@H]1CC[C@H]2[C@@H](COC[C@@H](O)CN2Cc2ccccc2)O1)NCc1ccccc1Cl
  nt, -1.2, 1.0, 4.5, nt, nt, i, -1.8, nt
COc1ccc(NC(=O)N(C)C[C@@H]2OCCCC[C@H](C)Oc3ccc(NC(=O)NC4CCCCC4)cc3C(=O)N([C@H](C)CO)C[C@@H]2C)cc1
  nt, -2.9, -1.1, -2.1, nt, nt, i, -0.2, nt
CCOC(=O)C1=C(O)C(Nc2nccs2)(C(F)(F)F)N=C1C (stereo not drawn)
  0.706, nt, nt, nt, 0.4, 0.2, nt, nt, -3.2%
CC(=O)Nc1c(Cl)c(Cl)c2c(c1Cl)Cc1cc(Cl)ccc1-2
  0.685, 6.8, 0.9, -0.7, nt, 2.6, i, 4.0, -89.1%
CC(=O)c1ccc(C2CC(OCCF)=CC(=O)O2)cc1 (stereo not drawn)
  nt, -0.9, 14.6, 12.4, nt, 3.5, i, 0.0, nt
COc1ccc2[nH]c3c(=O)n(CCCC(=O)NC4CCC(C)CC4)c(=S)[nH]c3c2c1 (stereo not drawn)
  0.708, -0.9, 6.1, 11.4, 0.7, -0.1, i, 0.4, nt
CC(C)Sc1nc2c([nH]1)c(=N)ncn2Cc1ccccc1
  0.628, -2.2, -7.3, 7.7, nt, 0.8, i, 1.3, -2.7%
O=C(C1CCOCC1)N1CC2(C1)[C@@H](c1ccccc1)[C@@H](CO)N2Cc1ccc(Cl)cc1
  nt, 1.0, -0.5, -10.5, nt, nt, i, 0.6, nt
Cc1nnc(SCC(=O)Nc2ncc3c(n2)CC(c2ccccc2)CC3=O)s1 (stereo not drawn)
  0.652, nt, 19.8, 12.6, -12.5, -0.1, nt, 0.0, -0.6%
COC(=O)c1ccccc1NC(=S)N(Cc1ccc2c(c1)OCO2)Cc1cc2ccc(OC)cc2[nH]c1=O
  nt, -0.2, 8.1, 7.1, -3.7, 1.1, i, 2.3, 3.1%
O=C(c1cc(-c2ccc(O)cc2)on1)N1CCCC1
  0.635, 3.9, nt, nt, 99.0*, -3.2, i, nt, 3.0%
CC(=O)Nc1ccc(OCCCN2CCC(C(O)(c3ccccc3)c3ccccc3)CC2)cc1
  nt, 5.2, 6.9, -4.8, nt, 1.0, i, 1.2, nt
O=C(/C=C/c1ccc(O)c(O)c1)NC(=O)c1ccccc1O
  0.692, -11.7, nt, nt, 96.2*, -8.3, i, nt, nt
O=C1CN(C(=O)/C=C/c2ccc(Cl)cc2Cl)CCN1
  0.707, 6.3, -23.9, -15.6, 50.4, -0.2, i, -5.0, 12.2%
C[C@@H]1CCCCO[C@@H](CN(C)Cc2ccc(C(F)(F)F)cc2)[C@H](C)CN([C@@H](C)CO)C(=O)c2cc(NC(=O)Nc3ccc(F)cc3)ccc2O1
  nt, 0.0, -2.1, 1.4, nt, nt, i, 0.2, nt
Cc1csc(SCC(=O)Nc2cc([N+](=O)[O-])ccc2F)n1
  0.686, -2.1, nt, nt, 2.7, 3.1, i, nt, -3.4%
O=S(=O)(NCCOCC(F)(F)F)c1ccc2oc3ccccc3c2c1
  0.699, nt, nt, nt, -7.4, -3.3, nt, nt, 18.1%
CC(=O)N1N=C(N)SC12CCCC2
  0.693, -0.2, 9.4, 6.2, 6.3, -0.8, i, 4.4, -6.9%
O=C(CC(=O)c1ccccc1)Nc1ccccc1C(F)(F)F
  0.673, -1.6, 5.5, 2.4, -2.9, -2.2, i, 0.1, 0.6%
CCn1c(=O)c2ccccc2n(CC(=O)NC2CCCCC2)c1=O
  0.659, 0.3, 2.2, 8.9, 6.8, 0.1, nt, 3.9, nt
COc1ccccc1-c1ccc([C@@H]2[C@@H](C#N)N(C(=O)NC3CCCCC3)[C@@H]2CO)cc1
  nt, 0.2, -4.9, -29.2, nt, nt, i, -1.9, nt
N#C[C@@H]1[C@H](c2ccc(C3=CCCC3)cc2)[C@H](CO)N1C(=O)c1cccc(F)c1
  nt, -0.6, 1.8, -2.6, nt, nt, i, 0.1, nt

Further records follow.
Each structure is followed by: Ecoli growth, AF4-AF9 inh, Ecoli rRNA inh, Ecoli rRNA inh OD600, ALR H2O2 inh, HNF4A DNA FP, FGF22 binding, Ecoli rRNA inh RFP, Vif TR-FRET
O=C(c1cccc(-c2cccc3nccn23)c1)N1CCOCC1
  nt, 1.5, 6.8, 12.9, nt, 4.0, i, 1.6, nt
Cc1ccc2c(c1)C(O)(CC(=O)c1cccnc1)C(=O)N2 (stereo not drawn)
  0.718, nt, nt, nt, -1.0, -2.2, nt, nt, 0.8%
C[C@@H]1CCCCO[C@@H](CN(C)C(=O)Cc2ccccc2)[C@H](C)CN([C@H](C)CO)C(=O)c2cc(NC(=O)Nc3ccccc3)ccc2O1
  nt, 0.4, -2.7, 4.0, nt, nt, i, 2.5, nt
CCCN1[C@H](C(=O)OC)[C@@H](CO)[C@@H]2Cn3c(ccc(-c4cncnc4)c3=O)[C@@H]21
  nt, -3.4, 6.6, 16.9, nt, nt, i, 3.9, nt
O=C(CC1Sc2ccccc2NC1=O)OCC(=O)N1CCc2ccccc21 (stereo not drawn)
  0.7, nt, nt, nt, nt, 2.2, nt, nt, -1.3%
CC1(C)CC(=O)C=C(c2ccc(COC(=O)Cc3ccccc3)cc2)C1=O
  nt, 3.5, -21.6*, -12.7*, nt, -5.2, i, -3.1*, 7.7%
COc1ccc(NC(=S)N(CCc2c(C)[nH]c3ccc(C)cc23)Cc2cccs2)cc1
  0.715, 1.7, -2.0, -7.6, -12.3, -5.2, i, 3.2, 10.7%
COc1ccc(Cc2c(-c3ccco3)nc3ccc(Br)cn23)c(C)c1
  nt, 1.6, -2.4, 5.0, nt, -31.6, i, 5.1, nt
COc1cccc(CN(Cc2ccco2)S(=O)(=O)c2ccc(S(=O)(=O)NCc3ccccc3)cc2)c1OC
  0.786, nt, nt, nt, 1.8, -1.2, nt, nt, 15.6%
O=C(NNC(=O)c1ccc2ccccc2n1)c1ccc(O)cc1
  0.69, -1.2, -5.3, -20.0, nt, -5.3, i, -4.2, nt
CCOC(=O)c1nc(Nc2ccc(OC)cc2)c2ccccc2n1
  0.666, nt, nt, nt, 2.7, 1.2, nt, nt, -1.5%
Cc1ccc(OCC(=O)Nc2nnc(S(=O)(=O)N3CCCCCC3)s2)cc1C
  0.749, 6.2, nt, nt, nt, -5.9, i, nt, nt
CN(CC(=O)NC1CCN(Cc2ccccc2)CC1)S(=O)(=O)c1ccc(Cl)cc1
  0.704, 0.2, 1.4, 14.5, nt, 4.7, i, -3.7, 7.5%
Brc1ccc(COc2ncnc3ccccc23)cc1
  0.703, -1.7, -10.5, -0.3, -7.9, -6.8, i, -1.5, -9.8%
COc1ccc(NC(=O)N(C)C[C@@H]2Oc3ccc(NC(=O)CCCCCC(=O)Nc4ccccc4N)cc3C(=O)N([C@H](C)CO)C[C@@H]2C)cc1
  nt, 0.9, 0.6, -2.8, nt, nt, i, -2.0, nt

This is a subset (hit frequency here may not be typical).
